A488 autofl: compound autofluorescence in A488 spectral region; compound autofluorescence, A488 spectral region, dye equivalency; hits give high values; max dye equivalency, M; actives 0.1% (n = 59,000); AID 591; active = above 10 nM dye equivalent; inconclusive = 1 to 10 nM; inactive = 1 nM or less; about half of its hits are not listed in these tables;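 also: highest value over a series up to 38 µM; compound alone in buffer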
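Spectroscopic profiling in the A488 region: compounds in pH 8.0 Tris (100 mM), 15 min RT, CCD imaging with 480 nm excitation and 540 nm emission; responses normalized against A488 dye standards.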
A647 fluor: A647 region autofluorescence; AID 592; Compound fluorescence, A647 channel (570/671 nm), Tris buffer; 59,000 tested, under 10 active; max dye-equivalent concentration, M; active means above 1 µM dye equivalent; inconclusive means 0.1 to 1 µM; inactive means 0.1 µM or less;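 also: values scaled relative to a standard on each plate; highest value over a series up to 38 µM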
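Buffer was dispensed, compounds and Alexa 647 standards were pin-transferred, and plates sat 15 min at room temperature. Intensity at 570/671 nm was then converted to dye-equivalent concentration using the plate's A647 standard curve.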
AID923: qHTS Assay for Allosteric/Competitive Inhibitors of Caspase-1: Spectroscopic Profiling in AFC Spectral Region. compound fluorescence, AFC spectral region (405/520 nm); almost no hit is shown here. Potency, µM (series often up to 57.5 µM), without a hit: at the top dose fluorescence increase, most hits filed as activators. actives 1.1% (n = 75,000); active = well fitted activation curve with a large enough effect; inconclusive = small, poorly fitted or top-dose-only effect;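 also: potency is read from the fitted curve at half-maximal effect; 0% is about no effect; scaled to a free AFC standard on each plate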
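Titrations up to 57 uM read every 20 sec for 3 min (405/520 nm) with 50 nM caspase 1 and 5 uM Ac-WEHD-AFC, pH 7.5 HEPES buffer. Fluorescence-vs-time intercept gave baseline, scaled against on-plate AFC standard.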
Resorufin fluor: compound fluoresces in the resorufin spectral region; Compound fluorescence, resorufin region 547/598 nm, buffer; hits give high values; max dye-equivalent concentration, M; actives 0.04% (n = 59,000); active = above 10 nM dye equivalent; inconclusive = 1 to 10 nM; inactive = 1 nM or less; a few of its hits are not listed in these tables; also: highest value over a series up to 38 µM
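Dye-equivalent concentration values derive from comparing each well's 547/598 nm fluorescence against resorufin standards included on every plate. Incubation was 15 min at room temperature in 100 mM Tris, pH 8.0.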
TSHR ag: TSH receptor (human) agonism. HEK293-CNG-TSHR cells (CNG channel as cAMP sensor), membrane potential dye, cAMP. actives 0.48% (n = 73,000). P16473. Potency, µM (highest dose often 57.1 µM), for the others: at the highest dose activation, usual class: activators; active = well fitted activation curve of enough size with the parental cells flat; inconclusive = any curve in the parental cells; inactive = parental cells flat and receptor cells flat or falling; also: potency is read from the fitted curve at half-maximal effect; % of control where 0% means no effect; weak receptor curves with flat parental cells got no call and are not listed
Target sequence (P16473 whole entry, looked up): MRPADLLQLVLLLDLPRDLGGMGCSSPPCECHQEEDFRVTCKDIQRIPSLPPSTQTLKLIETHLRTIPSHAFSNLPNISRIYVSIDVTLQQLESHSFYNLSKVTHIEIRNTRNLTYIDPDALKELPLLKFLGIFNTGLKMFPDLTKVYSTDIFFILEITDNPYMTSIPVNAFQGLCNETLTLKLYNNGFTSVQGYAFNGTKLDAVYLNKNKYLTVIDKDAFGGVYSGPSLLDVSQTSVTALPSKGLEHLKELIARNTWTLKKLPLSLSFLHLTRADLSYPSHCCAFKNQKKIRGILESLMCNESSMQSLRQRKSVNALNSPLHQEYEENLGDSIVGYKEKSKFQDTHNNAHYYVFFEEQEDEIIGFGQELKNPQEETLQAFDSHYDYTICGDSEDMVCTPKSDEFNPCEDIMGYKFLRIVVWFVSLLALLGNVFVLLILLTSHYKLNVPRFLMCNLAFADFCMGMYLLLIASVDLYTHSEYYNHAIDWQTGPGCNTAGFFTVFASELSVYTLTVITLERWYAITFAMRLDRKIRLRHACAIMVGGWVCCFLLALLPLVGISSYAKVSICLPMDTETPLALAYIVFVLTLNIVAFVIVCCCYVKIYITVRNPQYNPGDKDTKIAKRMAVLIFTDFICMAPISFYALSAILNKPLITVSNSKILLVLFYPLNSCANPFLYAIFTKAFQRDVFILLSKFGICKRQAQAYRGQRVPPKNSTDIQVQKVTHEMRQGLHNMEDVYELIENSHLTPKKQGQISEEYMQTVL
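HEK 293 cells stably expressing TSHR and a modified CNG channel, with CNG-only parental cells as counterscreen, were preloaded 60 min at room temperature with membrane potential dye containing 100 uM RO 20-1724. Compound exposure was 30 min, and depolarization was read as fluorescence at 590 nm.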
An asterisk follows results filed as active; & = joins results of further samples; [ ] = remark or other dose. Not all compounds are listed (hit frequency here may not be typical).

For O=C(Nc1c2c(nn1-c1ccc(F)cc1)CS(=O)C2)C12CC3CC(CC(C3)C1)C2 (centres undefined) the results were A488 autofl inactive, A647 fluor 1.1e-08, AID923 0.6%, Resorufin fluor inactive and TSHR ag inconclusive.
For O=C(c1csnn1)N1CCC2(CC1)CN(c1ncccn1)C2 the results were A488 autofl inactive, A647 fluor 1.6e-09, AID923 4.3%, Resorufin fluor inactive and TSHR ag -1%.
CCN(CC)c1ccc(NC(=O)CSc2nnc(N)s2)cc1C was read as AID923 -1.3% and TSHR ag 6%.
CCOc1ccc(Cn2nnc(C(=O)Nc3cc(OC)cc(OC)c3)c2N)cc1 was read as AID923 0.4% and TSHR ag -3%.
Screening COc1ccc(CNC(=O)CN(C(=O)CCC(=O)Nc2ccccn2)c2ccccc2OC)cc1 returned A488 autofl inactive, A647 fluor 1e-09, AID923 0.9%, Resorufin fluor inactive and TSHR ag 22%.
Cn1c(=O)c2c(nc(SCCN3CCOCC3)n2Cc2ccc(F)cc2)n(C)c1=O was read as A488 autofl inactive, A647 fluor 2.4e-09, AID923 -1.6%, Resorufin fluor inactive and TSHR ag -3%.
`O=C(CCc1nc(-c2ccccc2F)no1)NC1CCCCC1` gave A488 autofl inactive, A647 fluor 1e-09, AID923 -0.6% and Resorufin fluor inactive.
`COc1cccc(-c2nc(-c3ccccn3)no2)c1OC` gave A488 autofl inactive, A647 fluor 1e-09, AID923 -0.6%, Resorufin fluor inactive and TSHR ag -2%.
COC(=O)c1c(NC(=O)CN2CCC(C(N)=O)CC2)c2c(C)cccc2n1C was read as A488 autofl inactive, A647 fluor 3.9e-09, AID923 1.1%, Resorufin fluor inactive and TSHR ag 3%.
Screening O=C(CC1Nc2ccccc2NC1=O)NCC1COc2ccccc2O1 (centres undefined) returned A488 autofl inactive, A647 fluor 2.5e-08, AID923 3.0%, Resorufin fluor inactive and TSHR ag -3%.
For Cc1cc(C)c(O)c(-c2cc(C(=O)Nc3ccc(S(=O)(=O)N4CCOCC4)cc3)[nH]n2)c1 the results were A488 autofl inactive, A647 fluor 1e-09, AID923 0.4%, Resorufin fluor inactive and TSHR ag inconclusive.
C[C@@](N)(/C=C\c1ccccc1)C(=O)O was read as A488 autofl inactive, A647 fluor 3.2e-08, AID923 -0.8%[11.5 µM], Resorufin fluor inactive and TSHR ag -3%[11.4 µM].
For Cc1ccc(C)c(N)c1 the results were AID923 0.7% and TSHR ag 0%.
Screening CC(=O)NC(C)(C)C1CC=C(C)/C(=N\O)C1 (centres undefined) returned AID923 2.8% and TSHR ag 3%.
For O=C(c1ccco1)N1CCC2(CC1)CN(C(c1ccccc1)c1ccccc1)C2 the results were A488 autofl inactive, A647 fluor 1.5e-09, AID923 1.0%, Resorufin fluor inactive and TSHR ag inconclusive.
`CC(=O)Nc1ccc(S(=O)(=O)NCc2csc(-c3cccnc3)n2)cc1` gave A488 autofl inactive, A647 fluor 1.1e-09, AID923 0.6%, Resorufin fluor inactive and TSHR ag 1%[11.4 µM].
`CC(N)=NCc1cccc(CN)c1` gave A488 autofl inactive, A647 fluor 4.1e-08, AID923 0.5%&-0.1%, Resorufin fluor inactive and TSHR ag 3%&-1%.
Screening Cc1ccccc1-c1nccc(NCCN2CCOCC2)n1 returned A488 autofl inactive, A647 fluor 1e-09, AID923 -0.1%, Resorufin fluor inactive and TSHR ag inconclusive.
For COc1ccc(Cc2nnc(SCc3nc4ccccc4c(=O)[nH]3)n2C)cc1 the results were A488 autofl inactive, A647 fluor 7.6e-09, AID923 -2.2%, Resorufin fluor inactive and TSHR ag 1%.
Nc1ncnc2nc(SCC(=O)N3CCN(c4ccccc4)CC3)[nH]c12 was read as A488 autofl inactive, A647 fluor 3.4e-09, AID923 0.1%, Resorufin fluor inactive and TSHR ag -3%.
CC1(C)Cc2c(C#N)c(N)sc(=S)c2CS1 was read as A488 autofl inactive, A647 fluor 1e-09, AID923 20%, Resorufin fluor inactive and TSHR ag -22%.
Screening COc1ccc(-c2cc(C(F)(F)F)n3nc(C(=O)O)nc3n2)cc1 returned A488 autofl inactive, A647 fluor 1e-09, AID923 15%, Resorufin fluor inactive and TSHR ag -2%.
CC(C)(C)c1cc(C(=S)N2CCN(CCO)CC2)cc(C(C)(C)C)c1O was read as A488 autofl inactive, A647 fluor 1.6e-08, AID923 2.1%, Resorufin fluor inactive and TSHR ag 1%.
`CC(C)c1cc(C(=O)NC2CCCCC2)no1` gave A488 autofl inactive, A647 fluor 7.5e-09, AID923 1.2%, Resorufin fluor inactive and TSHR ag inconclusive.
For CCN1CCN(Cc2nc3c(c(=O)n(C)c(=O)n3C)n2CCCc2ccccc2)CC1 the results were A488 autofl inactive, A647 fluor 3.6e-08, AID923 1.7%, Resorufin fluor inactive and TSHR ag -4%.
For CN(C)/C=C1/C(=O)Nc2ccccc21 the results were AID923 1.1% and TSHR ag 5%[11.4 µM].
O=C(Cn1c(=O)oc2ccccc21)c1ccccc1 was read as A488 autofl inactive, A647 fluor 1e-09, AID923 -1.8%, Resorufin fluor inactive and TSHR ag 2%.
`CC1(C)Cc2cccc(OCC(O)CN3CCN(c4ccccn4)CC3)c2O1` (centres undefined) gave A488 autofl inactive, A647 fluor 1e-08, AID923 -0.9%, Resorufin fluor inactive and TSHR ag 5%.
`CCCn1cc(SCC(=O)NCc2ccco2)c2ccccc21` gave A488 autofl inactive, A647 fluor 4.8e-09, AID923 0.9%, Resorufin fluor inactive and TSHR ag 17%.
For CCN(C(=O)CSc1ccc2c(c1)OCCO2)C1CCS(=O)(=O)C1 (centres undefined) the results were A488 autofl inactive, A647 fluor 3.5e-09, AID923 -1.2%, Resorufin fluor inactive and TSHR ag -2%.
`CC(C)(C)OC(=O)N[C@H](Cc1ccccc1)C(=O)N1CCC(C(=O)O)CC1` gave A488 autofl inactive, A647 fluor 2e-08, AID923 -4.5%, Resorufin fluor inactive and TSHR ag 7%.
`CN(C)CCNC(=O)c1coc(=O)c(Br)c1` gave A488 autofl inactive, A647 fluor 4e-08, AID923 4.7%, Resorufin fluor inactive and TSHR ag 24%.
For CCC(=O)Nc1nonc1-c1nc2ccccc2n1CC(C)C the results were A488 autofl inactive, A647 fluor 9.9e-09, AID923 0.7%, Resorufin fluor inactive and TSHR ag inconclusive.
For CC(C)NC[C@@H](O)COc1ccc(COCCOC(C)C)cc1 the results were A488 autofl inactive, A647 fluor 2.4e-08, AID923 -0.7%, Resorufin fluor inactive and TSHR ag 4%.
For c1ccc(CC2CCN(Cc3nc(-c4ccccc4)no3)CC2)cc1 the results were A488 autofl inactive, A647 fluor 1e-09, AID923 -1.2%, Resorufin fluor inactive and TSHR ag 18%.
`Cc1nc2[nH]c(=O)c3c(n2n1)NC1=C(C(=O)CC(C)(C)C1)C3c1ccc(F)cc1` (centres undefined) gave A488 autofl inactive, A647 fluor 1e-09, AID923 -3.0%, Resorufin fluor inactive and TSHR ag 3%.
C=CCn1c(NCCc2ccccc2)nc2c1c(=O)n(C)c(=O)n2C was read as A488 autofl inactive, A647 fluor 1.3e-09, AID923 1.1%, Resorufin fluor inactive and TSHR ag 16%.
O=C(Cc1cccs1)Nn1c(Cc2cccs2)nc2ccccc2c1=O was read as A488 autofl inactive, A647 fluor 1e-09, AID923 1.4%, Resorufin fluor inactive and TSHR ag 4%.
For COc1ccc(CN2CCN(C)CC2)cc1OCc1ccccc1 the results were A488 autofl inactive, A647 fluor 1.7e-08, AID923 1.3%, Resorufin fluor inactive and TSHR ag 20%.
O=C(COC(=O)c1ccc(Br)o1)NCCCc1ccccc1 was read as A488 autofl inactive, A647 fluor 1e-09, AID923 -0.8%, Resorufin fluor inactive and TSHR ag 5%.
For O=C(C1CCN(S(=O)(=O)c2cccc3cccnc23)CC1)N1CCN(C2CCCC2)CC1 the results were AID923 -0.8% and TSHR ag -2%.
For Cn1c(=O)oc2cc(S(=O)(=O)N3CCC(C(=O)NCc4cccs4)CC3)ccc21 the results were AID923 1.3% and TSHR ag -3%.
For c1ccc(N2CCN(c3ncnc4c3oc3ccccc34)CC2)cc1 the results were AID923 4.0% and TSHR ag inconclusive.
Screening O=C(Nc1cccc(OC(F)(F)F)c1)c1ccc(Br)o1 returned AID923 -0.5% and TSHR ag inconclusive.
Cc1nnc(SCC(=O)N2CCC(C(=O)Nc3nccs3)CC2)n1Cc1ccccc1 was read as A488 autofl inactive, A647 fluor 3.9e-09, AID923 -0.8%, Resorufin fluor inactive and TSHR ag -5%.

3 entries out of the list, arranged by formula weight, smallest number first.
CC(C)(C)c1cc(C(=S)N2CCN(CCO)CC2)cc(C(C)(C)C)c1O was read as A488 autofl inactive, A647 fluor 1.6e-08, AID923 2.1%, Resorufin fluor inactive and TSHR ag 1%.
`Cc1nc2[nH]c(=O)c3c(n2n1)NC1=C(C(=O)CC(C)(C)C1)C3c1ccc(F)cc1` (centres undefined) gave A488 autofl inactive, A647 fluor 1e-09, AID923 -3.0%, Resorufin fluor inactive and TSHR ag 3%.
For O=C(C1CCN(S(=O)(=O)c2cccc3cccnc23)CC1)N1CCN(C2CCCC2)CC1 the results were AID923 -0.8% and TSHR ag -2%.

Following part:
Screening O=C(O)/C=C/c1cccc(B(O)O)c1 returned AID923 1.0% and TSHR ag 4%.
For Nc1nnnn1/N=C/c1ccccc1OCc1ccc(Cl)cc1Cl the results were A488 autofl inactive, A647 fluor 1.2e-08, AID923 -1.2%, Resorufin fluor inactive and TSHR ag inconclusive.
`COc1ccc(-c2cc(C(=O)Nc3ccc(C)cc3)no2)cc1` gave A488 autofl inactive, A647 fluor 1.6e-08, AID923 2.5%, Resorufin fluor inactive and TSHR ag 3%.
Screening Brc1ccc(-c2cnc(-c3cccs3)o2)cc1 returned A488 autofl inactive, A647 fluor 7.2e-09, AID923 4.2%, Resorufin fluor inactive and TSHR ag inconclusive.
`CCC(C)Nc1nc(OCC(F)(F)F)nc(OCC(F)(F)F)n1` (centres undefined) gave A488 autofl inactive, A647 fluor 1e-09, AID923 -0.3%, Resorufin fluor inactive and TSHR ag 7%.
Screening Cc1ccc2c(c1)cc(CN(Cc1ccco1)C(=O)COc1ccccc1)c1nnnn12 returned A488 autofl inactive, A647 fluor 1.5e-08, AID923 1.7%, Resorufin fluor inactive and TSHR ag inconclusive.
`O=C(CSCc1nc2ccccc2[nH]1)N1CCN(c2cccc(Cl)c2)CC1` gave A488 autofl inactive, A647 fluor 1.2e-09, AID923 0.9%, Resorufin fluor inactive and TSHR ag inconclusive.
For CC(C)Oc1ccc(N2CC(C(=O)Nc3ccc4c(c3)OCO4)CC2=O)cc1 (centres undefined) the results were AID923 -1.0% and TSHR ag -4%.
Screening Oc1ccccc1CNc1nc2ccccc2n1CCN1CCCCC1 returned AID923 -1.4% and TSHR ag -7%.
Screening CCC(=O)Nc1cc(C)c(NC(=O)CCc2ccccc2)cn1 returned A488 autofl inactive, A647 fluor 3.7e-08, AID923 8.6%, Resorufin fluor inactive and TSHR ag 9%.
Screening CCC(SCC(=O)OC)C(=O)Nc1nnc(C(C)C)s1 (centres undefined) returned AID923 0.9% and TSHR ag -3%.
Screening Cc1cc(NC(=O)CS(=O)(=O)c2cn(Cc3cccc(F)c3)c3ccccc23)no1 returned A488 autofl inactive, A647 fluor 1.2e-08, AID923 2.1%, Resorufin fluor inactive and TSHR ag 17%.
For Cn1c(CCN2CCCCC2)nc2cc(NC(=O)NC3CCCCC3)ccc21 the results were A488 autofl inactive, A647 fluor 5.6e-09, AID923 0.8%, Resorufin fluor inactive and TSHR ag 2%.
`COc1ccc(OC)c(S(=O)(=O)Nc2ccc(OCC(=O)O)cc2)c1` gave AID923 3.1% and TSHR ag 0%.

Gathered by group: those above with a tert-butyl group (2)
CC(C)(C)c1cc(C(=S)N2CCN(CCO)CC2)cc(C(C)(C)C)c1O was read as A488 autofl inactive, A647 fluor 1.6e-08, AID923 2.1%, Resorufin fluor inactive and TSHR ag 1%.
`CC(C)(C)OC(=O)N[C@H](Cc1ccccc1)C(=O)N1CCC(C(=O)O)CC1` gave A488 autofl inactive, A647 fluor 2e-08, AID923 -4.5%, Resorufin fluor inactive and TSHR ag 7%.
